# CtBP-E1A blk: CtBP/E1A binding inhibition. AlphaScreen GST-E1A/His-CtBP binding, 1536-well; hits give low values; control for the full effect not named in the record. activity change, % (no concentration beside the values). actives 0.49% (n = 340,000); in the data active means activity change below about -65%; inconclusive means about -30% to -65%; inactive means above about -30%; note: % is set by controls: 0 for no effect and ±100 for the full control effect; compound concentration not given in the record
#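 GST-E1A and His-tagged CtBP (125 nM each as 5X stock) were preincubated with pin-transferred compound for 2 h at 37 °C in the dark, then glutathione donor and nickel acceptor beads were added for 1 h before AlphaScreen reading.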
# D2 ag: human D2 receptor agonism in beta-arrestin assay | P14416 | DiscoveRx PathHunter D2 beta-arrestin, luminescence, 90 min; 100% = 57 uM dopamine signal | activation, % (concentration not given with the values) | actives 0.084% (n = 360,000); in the data active = activation above about 40%; inconclusive = about 15% to 40%; inactive = below about 15%; note: compound concentration not given in the record; the text of the record calls up to 30% inactive
# Target sequence (P14416 whole entry, looked up): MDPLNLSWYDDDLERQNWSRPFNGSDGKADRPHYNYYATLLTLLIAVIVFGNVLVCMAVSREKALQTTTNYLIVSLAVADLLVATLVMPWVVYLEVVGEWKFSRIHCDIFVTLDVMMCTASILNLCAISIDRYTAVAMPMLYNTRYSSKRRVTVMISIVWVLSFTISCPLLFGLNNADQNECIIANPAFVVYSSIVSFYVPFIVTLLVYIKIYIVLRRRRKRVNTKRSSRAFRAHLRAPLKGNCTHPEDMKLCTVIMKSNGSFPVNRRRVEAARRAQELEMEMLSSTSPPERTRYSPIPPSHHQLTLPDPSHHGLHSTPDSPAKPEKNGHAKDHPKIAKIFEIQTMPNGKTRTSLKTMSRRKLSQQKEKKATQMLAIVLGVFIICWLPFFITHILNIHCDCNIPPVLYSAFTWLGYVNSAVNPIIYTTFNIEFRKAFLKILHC
#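 Agonist mode: compounds alone added to overnight-plated D2 PathHunter cells for 90 min at 37 C, with 57 uM final dopamine (EC100) defining full response. Beta-arrestin recruitment detected by chemiluminescent reagent, read after 1 h at ambient temperature.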
# TRPML1 ag: human mucolipin-1 channel agonism. Q9GZU1. TRPML1-expressing cells, Ca2+ dye fluorescence, FDSS; host cell line not named in the record; reference of the full effect not given here. activation, % (test concentration not listed). actives 0.12% (n = 410,000); in the data active = activation above about 50%; inconclusive = about 30% to 50%; inactive = below about 30%; note: 0% is about no effect; the text of the record puts the active cut at 80%
# Target sequence (Q9GZU1 whole entry, looked up): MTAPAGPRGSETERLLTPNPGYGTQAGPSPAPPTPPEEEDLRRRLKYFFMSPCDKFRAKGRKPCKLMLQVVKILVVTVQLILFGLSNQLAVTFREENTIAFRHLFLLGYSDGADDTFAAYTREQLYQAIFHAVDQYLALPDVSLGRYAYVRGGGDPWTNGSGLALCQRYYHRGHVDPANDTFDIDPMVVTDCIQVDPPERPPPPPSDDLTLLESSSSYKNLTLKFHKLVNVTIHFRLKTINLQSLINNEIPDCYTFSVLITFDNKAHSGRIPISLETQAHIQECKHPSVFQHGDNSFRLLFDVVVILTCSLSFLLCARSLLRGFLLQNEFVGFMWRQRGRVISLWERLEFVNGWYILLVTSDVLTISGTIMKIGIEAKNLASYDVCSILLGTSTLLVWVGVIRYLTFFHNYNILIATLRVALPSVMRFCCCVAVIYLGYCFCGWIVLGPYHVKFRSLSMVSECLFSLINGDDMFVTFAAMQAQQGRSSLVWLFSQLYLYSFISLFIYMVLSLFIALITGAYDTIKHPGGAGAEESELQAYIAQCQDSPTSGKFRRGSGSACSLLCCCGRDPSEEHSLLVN
#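 TRPML1-DL cells, Tet-induced overnight (~16 h, 37 degrees C), loaded 45-90 min at room temperature with Ca8 no-wash calcium dye plus quencher. FDSS fluorescence: 10 s baseline, compound pin-transfer, 110 s agonist read, then EC80 54-4 (4uM final) and 110 s antagonist read.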
# PINK1 expr mod: changes PINK1 expression; AID 624263; PINK1 immunofluorescence, high-content cytometry, 24 h; Potency, µM (series often up to 76.6 µM), without a hit: at the highest dose activation (PINK1 increase), most hits filed as activators; actives 0.2% (n = 410,000); active = well fitted activation curve with a large enough effect; inconclusive = small, poorly fitted or top-dose-only effect; inactive = flat fitted curve, though single readings scatter; cell line not stated here;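 note: potency is the fitted concentration of half-maximal effect; % of control where 0% means no effect; nearly all actives have a fitted effect of over 65% in size; a mitochondrial uncoupler was the plate control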
#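 Stable cell line treated 24 h with compounds at 5 concentrations (CCCP controls), then fixed and immunostained for PINK1 plus nuclear and cell stains; PINK1 immunofluorescence quantified by laser-scanning microplate cytometry.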
# TRPML1 blocker: blocks the human TRPML1 channel | Q9GZU1 | TRPML1-inducible cells, Ca2+ dye fluorescence, FDSS; hits give low values; inhibition of EC80 agonist-evoked calcium signal | activity change, negative = inhibition, % (no concentration beside the values) | actives 0.02% (n = 390,000) | AID 624415; in the data active means activity change below about -50%; inconclusive means about -30% to -50%; inactive means above about -30%;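 note: stimulus is agonist 54-4 at its EC80 concentration; % is set by controls: 0 for no effect and ±100 for the full control effect; compound concentration not given in the record; the text of the record puts the active cut at -80%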
#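 Tet-induced TRPML1-DL cells loaded with Ca8 no-wash calcium dye were read kinetically on FDSS. Compound addition was followed by EC80 agonist 54-4 (4 uM final); inhibition was read over 110 s.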
# Six1-Eya2 inh: inhibitors of human Six1/Eya2 interaction; AlphaScreen GST-Six1/His-Eya2 binding, biochemical; hits give low values; control for the full effect not named in the record; activity change, % (no concentration beside the values); actives 0.56% (n = 360,000); AID 651725; in the data active = activity change below about -65%; inconclusive = about -30% to -65%; inactive = above about -30%; note: % is set by controls: 0 for no effect and ±100 for the full control effect; compound concentration not given in the record
#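 AlphaScreen with GST-Six1 and His-Eya2 (5X mix: 250 nM and 500 nM), glutathione donor and nickel acceptor beads; buffer 50 mM Tris pH 8.0, 300 mM NaCl, 1 mM TCEP; 1 h at 37 C in the dark.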
# * marks the source's active call; other numbers are inactive results; ? = inconclusive; . = no result given; & = joins results of further samples; [ ] = another dose, or the depositor's remark. Rows are unselected. About 1% of those tested had a hit in this group.
SMILES,CtBP-E1A blk,D2 ag,TRPML1 ag,PINK1 expr mod,TRPML1 blocker,Six1-Eya2 inh
Nc1c(C(=O)O)sc2nc(-c3ccccc3)cc(-c3ccccc3)c12,3.5,-6.2,-0.4,3.7%,21.8,9.8
C[C@@H]1CN([C@H](C)CO)C(=O)CCCn2nncc2CO[C@H]1CN(C)C(=O)C1CCCCC1,2.7,2.0,0.4,1.8%,-15.8,17.7
COc1ccc(/C=C/C(=O)Oc2ccc(C=O)cc2OC)cc1,-2.3,-1.6,-0.5,4.5%,4.1,0.0
CCOc1cccc(C2C(C(=O)c3ccc(C)o3)=C(O)C(=O)N2Cc2ccccc2)c1 (stereo not drawn),-1.1,3.3,2.3,0.2%,13.9,1.1
NCCNC(=O)Cc1ccc(NC(=O)Cc2ccc(Nc3ncnc4c3ncn4[C@@H]3O[C@H](CO)[C@@H](O)[C@H]3O)cc2)cc1,2.0,-6.2,0.1,1.9%,-3.3,2.4
CCCC(=O)NC(=S)Nc1cccc(NC(=O)c2ccc(Cl)cc2Cl)c1,1.3,-1.3,-0.6,0.7%,9.3,0.2
Cc1cccc(N2C(=O)C3C(c4ccccc4)OC4(C(=O)c5ccccc5C4=O)C3C2=O)c1 (stereo not drawn),5.2,0.9,-0.3,-0.8%[38.3 µM],4.9,3.2
COc1ccc(-c2cc(C(F)(F)F)c(C#N)c(SCC(=O)Nc3ccccc3C#N)n2)cc1,14.5,-5.0,4.5,?,30.7,?
COc1ccc(-c2cc(-c3cccs3)nc3sc(C#N)c(N)c23)cc1,9.6,0.7,1.2,16.4%,13.0,53.2
CC(NC(=O)CNC(=O)c1ccccc1Br)c1cccs1 (stereo not drawn),4.3,3.2,-0.2,1.9%,14.5,1.2

# 3 compounds already listed, arranged by count of non-hydrogen atoms, high to low:
SMILES,CtBP-E1A blk,D2 ag,TRPML1 ag,PINK1 expr mod,TRPML1 blocker,Six1-Eya2 inh
Cc1cccc(N2C(=O)C3C(c4ccccc4)OC4(C(=O)c5ccccc5C4=O)C3C2=O)c1 (stereo not drawn),5.2,0.9,-0.3,-0.8%[38.3 µM],4.9,3.2
COc1ccc(-c2cc(-c3cccs3)nc3sc(C#N)c(N)c23)cc1,9.6,0.7,1.2,16.4%,13.0,53.2
COc1ccc(/C=C/C(=O)Oc2ccc(C=O)cc2OC)cc1,-2.3,-1.6,-0.5,4.5%,4.1,0.0

# (continued)
SMILES,CtBP-E1A blk,D2 ag,TRPML1 ag,PINK1 expr mod,TRPML1 blocker,Six1-Eya2 inh
C[N+]1(CC(=O)OCCCC2CCCCC2)CCCC1,0.0,-2.3,1.1,-0.8%,21.2,6.1
CN(C)CCCNC(=O)c1cc(C(=O)c2c(Cl)cccc2Cl)c[nH]1,-2.5,-4.2,0.7,0.6%,-8.0,-0.8
Cc1ccc(S(=O)(=O)N2CCCCC2)cc1NC(=S)NC(=O)c1ccco1,.,-8.5,3.9,-1.1%,-6.1,-9.4
CCCCn1c2nc3ccccc3nc2c2c(=O)n(C(C)CC)cnc21 (stereo not drawn),41.8,-4.0,0.4,4.9%[38.3 µM],-5.3,27.5
Cc1ccc(NC(=O)N2CCC(NC(=O)c3cccc(F)c3)CC2)cc1,0.0,-7.4,-0.7,2.3%,-0.4,-19.0
N#CCCN(C(=O)COC(=O)COc1ccc(Cl)cc1)c1ccccc1,-0.5,0.3,-0.6,-1.7%,16.2,3.7
CNC(=S)N/N=C(\C)c1cccc(C(F)(F)F)c1,-9.8,-7.3,2.0,-0.4%,4.6,-13.8
CSCc1ccc(C(=O)N2CCCC(Nc3ccc4c(c3)OCCO4)C2)o1 (stereo not drawn),-3.1,-1.6,-1.1,-0.7%,-28.7,-9.5
O=C(O)C[C@H]1c2cc(F)ccc2S(=O)(=O)N1C1CCCC1,5.0,2.0,0.3&-0.3,1.3%,2.3,7.9
Cc1ccc(N=Nc2c(N)[nH]n3c(=O)cc(C)nc23)cc1,?,-6.1,2.9,2.5%,-11.5,?
Cc1ccc(S(=O)(=O)N2CCCCC2)cc1C(=O)Nc1ccc2cn[nH]c2c1,-1.5,1.3,-0.5,-1.6%,11.2,-3.2
CNC(=O)C1CCN(S(=O)(=O)c2c(C)noc2/C=C/c2cccc(OC)c2)CC1,-22.3,-3.4,0.3,3.9%,7.1,4.4
CCOc1ccccc1NC(=O)N1CC(CC)Oc2ccccc21 (stereo not drawn),.,.,2.7,1.0%,-13.4,.
CCOc1ccc(-c2c(C)sc3nc[nH]c(=O)c23)cc1,-0.8,4.5,0.0,-0.8%,-14.4,1.7
CCCN1CCN(C(=O)Cn2cnc3ccc(S(=O)(=O)N4CCC(C)CC4)cc3c2=O)CC1,3.9,-6.1,-0.2,1.4%,-4.8,9.2
O=C(O)c1cn(Cc2ccccc2)nc1-c1cccnc1,.,0.5,0.9,-0.4%,-4.7,6.0
O=c1c2ccc([N+](=O)[O-])cc2ncn1CCOc1ccc(Cl)cc1,-25.4,?,0.0,0.7%,-5.9,?
CCC(Sc1nccn1C)C(=O)Nc1nnc(C)s1 (stereo not drawn),4.7,0.7,-0.7,2.0%,-2.2,-6.4
O=C(Cn1nnc(-c2ccccc2Cl)n1)N1CCCCC1,4.5,2.2,-0.5,0.1%,1.4,2.4
CC1CCCN(C(=O)Cn2nnc(-c3ccc(F)cc3)n2)C1 (stereo not drawn),-16.3,-4.8,1.1,-1.0%,3.5,3.4
CCn1c2ccccc2c2cc(NC(=O)c3ccc(Br)o3)ccc21,-11.7,-2.2,-0.2,0.6%,0.2,-21.2
O=C1C2C3C=CC(C3)C2C(=O)N1c1ccc(N2CCN(c3ccccn3)CC2)c([N+](=O)[O-])c1 (stereo not drawn),.,-2.1,-0.9,0.2%,27.8,-16.9
COc1ccc(CN(CC2CCCO2)C(=O)CN2C(=O)COc3ccccc32)cc1OC (stereo not drawn),3.4,-6.8,-0.4,-0.7%,7.0,-0.6
COCOc1cccc(CN2CCC(C)(Oc3cccc(OC)c3)C2)c1 (stereo not drawn),-8.6,-3.9,-1.0,0.0%,.,-15.5
O=C(COC(=O)c1cc(=O)[nH]c2ccccc12)NC(=O)c1ccccc1,4.6,-6.6,-0.7,0.8%,3.0,-7.8
CSc1ccc(C2C(C#N)=C(N)Oc3c2ccc(=O)c2c(C)oc(C)c32)cc1 (stereo not drawn),-16.0,-0.3,5.1,?,3.4,?
O=C(COC(=O)c1ccc2ccccc2c1)Nc1ncc(C(F)(F)F)cc1Cl,1.8,-1.7,1.3,18.1%,-1.4,7.6
COC(=O)c1sccc1NC(=S)Nc1ccccc1,0.0,-5.5,-0.1,2.6%,29.6,20.8
O=C(/C=C/c1cn(CC(O)CN2CCCCC2)c2ccccc12)c1cccs1 (stereo not drawn),2.9,2.6,8.0,-3.6%,-0.9,3.6
Cc1ccc(C(=O)Nc2ccc(CN3CCS(=O)(=O)CC3)cc2)cc1C,7.2,-0.8,-0.6,-1.7%,4.2,9.4
O=C1CCCN1CCC1CCCCN1Cc1nc(COc2ccccc2)no1 (stereo not drawn),32.1,-0.6,0.2,1.1%,-5.3,10.7
CCn1nnc(NC(=O)c2cc(Cl)c(OC)c(Cl)c2)n1,-0.2,-5.2,0.4,0.2%,-11.1,9.8
CCN(CC)CCOC(=O)/C=C/c1ccccc1,.,-13.0,0.6,-1.1%,23.3,-5.6
O=C(c1cccc([N+](=O)[O-])c1)N1CCN(Cc2ccccc2)CC1,-0.9,2.6,1.2,-1.4%,-11.3,2.0
Cc1ccc(NC(=O)/C(=C/C=C/c2ccccc2)NC(=O)c2ccccc2)cc1,-1.1,3.9,1.2,-0.3%,17.1,-0.3
Cc1ccc(S(=O)(=O)N/N=C/c2ccc(OCC(=O)NC(C)C)cc2)cc1,-2.7,0.9,-0.9,-2.0%,55.2,8.4
COc1ccc(C2(C(=O)NCC3CCCO3)CCOCC2)cc1 (stereo not drawn),4.3,1.7,-0.3,-2.1%,-6.1,3.6
O=C(c1ccc([N+](=O)[O-])cc1)N1CCN(c2ccc(Nc3ccccc3)nn2)CC1,.,.,3.1,3.6%,6.1,.
O=C(COc1ccc(S(=O)(=O)N2CCOCC2)cc1)Nc1ccc(Br)cc1,.,-2.5,-1.7,3.8%,-7.4,-4.9
N/C(=N\N=C\c1ccc2c(c1)OCO2)c1nonc1N,.,-4.8,-1.0,0.7%,9.1,-11.5
O=C(NCc1ccco1)c1ccc(COCC(F)(F)F)cc1,4.6,-1.7,-0.3,1.9%[38.3 µM],22.0,-2.6
O=C(CSc1n[nH]c(-c2ccncc2)n1)Nc1ccc(F)cc1,0.0,0.4,-1.0,8.1%,12.5,0.7
COc1cc(/C=C/C(=O)O)cc(S(=O)(=O)NCC2CCCO2)c1OC (stereo not drawn),-8.5,-4.0,1.0,-1.1%,-4.7,-22.9
COc1cc(OC)cc(OCC(O)Cn2cnc3cc(C)c(C)cc32)c1 (stereo not drawn),4.9,6.8,0.1,0.9%,10.0,-6.9
CC(C)N(C(=O)CSc1ncnc2sc(-c3ccccc3)cc12)C(C)C,2.6,-1.7,0.7,9.3%,10.1,0.8
CC(NS(=O)(=O)c1cc(C(F)(F)F)ccc1Cl)C(=O)N(C)C1CCN(C)CC1 (stereo not drawn),9.6,-1.7,0.5,-1.1%,13.8,0.5
Cc1cccc(N2CCN(C(=O)CCCn3ncn4c(cc5occc54)c3=O)CC2)c1C,.,.,-0.1,-0.6%,10.6,.
Cc1ccc(S(=O)(=O)NCCN2CCOCC2)s1,0.1,-1.9,-0.5,-1.2%,-10.4,-0.5
CCOC(=O)c1cnc(SCc2ccccc2)nc1N,3.6,-0.6,2.2,.,3.1,11.4
O=C(Nc1ccccc1)c1cccc(S(=O)(=O)Nc2ccccn2)c1,0.3,-4.5,0.1,-3.4%,5.1,11.8

# Other compounds.
SMILES,CtBP-E1A blk,D2 ag,TRPML1 ag,PINK1 expr mod,TRPML1 blocker,Six1-Eya2 inh
CC1CCC2C(=O)N(c3cccc(C(=O)Nc4ccccc4Cl)c3)C(=O)C2C1 (stereo not drawn),3.5,1.9,-0.1,0.9%,19.2,3.7
COc1ccc(NC(=O)CN(C)C(=O)c2cccc(S(=O)(=O)N3CCCc4ccccc43)c2)cc1,0.0,-3.8,1.3,2.0%,-6.7,11.1
Clc1ccc2c(NCc3cccs3)ncnc2c1,.,0.1,2.1,2.8%,40.2,-11.0
O=C(Nc1ccc2ccccc2c1)c1ccccc1[N+](=O)[O-],7.9,-2.2,0.4,0.2%,10.3,0.0
COc1cccc(N2CC(NC(=O)c3ccc(S(=O)(=O)N4CCOCC4)cc3)CC2=O)c1 (stereo not drawn),.,.,-0.4,2.5%,-23.6,.
CCCN1CCC(NC(=S)Nc2cccc(Cl)c2Cl)CC1,.,-3.2,0.4,1.8%,1.7,2.5
O=C(c1ccoc1)N1CCN(c2cc(-c3ccncc3)nc3cc(-c4cccc(Cl)c4)nn23)CC1,6.3,-3.4,-0.8,6.4%,12.7,9.0
CCOc1cc2[nH]c(=O)n(CCCCC(=O)N3CCN(c4ccc(OC)cc4)CC3)c(=O)c2cc1OCC,.,.,-0.7,1.1%,27.6,.
O=C(Nc1ccc2c(c1)OCO2)c1cc(C2CC2)on1,3.0,-3.6,0.1,8.4%,-7.0,-2.3

# Source: PubChem (National Center for Advancing Translational Sciences (NCATS))
